CDC25B CDK2 inh: human CDC25B-CDK2/CyclinA binding inhibition. HTRF CDC25B-CDK2/CyclinA binding, anti-His/anti-Flag; stronger effect = higher value. AID 1259370. actives 0.72% (n = 94,000). z-score (test concentration not listed). P30305+P24941;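 note: score is relative to mean and SD of negative controls; strong numbers were not always called active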
TAR Tat displ: HIV-1 TAR-Tat binding disruption. HIV-1 TAR RNA, Tat peptide displacement FRET; stronger effect = higher value. z-score (no concentration beside the values). actives 0.6% (n = 100,000). AID 1259389;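 note: score is relative to mean and SD of negative controls; some compounds called inactive have numbers as strong as hits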
* = called active by the depositor; . = no result given.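 Rule for the calls: active = z-score from 3 up in half or more of its runs; inactive = the rest.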

SMILES	CDC25B CDK2 inh	TAR Tat displ
Cc1nn(CCCC(=O)NC(C)CCc2ccco2)c(=O)c2cc3occc3n12 (stereo unspecified)	-0.49	0.82
COc1cc(NC(c2ccc(Cl)cc2)c2nnc(-c3cccc(F)c3)o2)cc(OC)c1 (stereo unspecified)	-0.29	1.98
Cc1cc2c(cc1NS(=O)(=O)c1cnc[nH]1)n(C)c(=O)c(=O)n2C	.	-0.41
CC1=C(c2cccc(Cl)c2)S(=O)(=O)N=C1Nc1cc(C)cc(C)c1	-4.78	1.04
COc1ccc(N2CCCS2(=O)=O)cc1NS(=O)(=O)c1ccc(C)cc1C	.	1.35
CCCCN1C(=O)CCc2cc(NS(=O)(=O)CC)ccc21	.	1.52
Cc1ccc(-c2nc(SCC(=O)N3CCCC3)n3[nH]c(=O)cc3n2)cc1	.	0.66
O=C(O)C1CCCN1c1ncc(Cl)cc1[N+](=O)[O-] (stereo unspecified)	.	-12.6
COc1ccc(-c2noc(N3CCN(c4ccc(C)cc4)C(C)C3)n2)cc1OC (stereo unspecified)	.	0.34
O=C(CCC1=NS(=O)(=O)c2ccccc2N1)NCCc1ccco1	.	0.45
O=C(Nc1ccc(OCc2ccccc2)cc1)OCC1CN(Cc2ccccc2)CCO1 (stereo unspecified)	0.17	.
COc1cccc(NCc2cccn2-c2nnc(N3CCN(C)CC3)s2)c1	.	1.02
Cc1cc(Nc2ccc(N3CCN(C)CC3)cc2)nc(C)n1	11.5*	-1.55
CC1CCc2nn(CC(=O)NC3CCCC(C)C3C)cc2C1 (stereo unspecified)	-0.97	-0.02
CCOc1ccc(C2c3c(-c4c(C)cc(C)cc4O)n[nH]c3C(=O)N2CCO)cc1OCC (stereo unspecified)	-1.38	1.44
O=C(CSc1nnc2c3c4c(sc3ncn12)CCCC4)Nc1cccc(Cl)c1	-0.56	-2
CC1=Nc2cc(C(=O)NCCCN3CCCC3=O)ccc2Sc2ccc(C)cc21	-1.75	-1
CCn1nc(SC)n2c(=O)c3c(nc12)-c1ccccc1CC3(C)C	-1.82	-0.96
CN(CCNC(=O)C1CCCN(c2nnc(N3CCCC3=O)s2)C1)C1CCCCC1 (stereo unspecified)	.	0.39
O=C(Nc1ccccc1)N1CCC(c2ccccc2)C1 (stereo unspecified)	.	1.18
CC1C(=O)Nc2ccc(S(=O)(=O)Nc3cc(F)ccc3F)cc2NC1=O (stereo unspecified)	-1.33	-0.01
COc1cc(NC(=O)C2CC2)c(C(=O)O)cc1OC	-1.29	0.58
Cc1ccc(C)c(S(=O)(=O)N(C(=O)c2cccnc2)c2ccc3oc(=O)sc3c2)c1	-1	-2.21
OCCN(CCO)c1ncnc2c1cnn2-c1ccccc1	.	2.74
O=C(CSc1ccc(-c2cccs2)nn1)Nc1cccc(F)c1	.	2.38

Following part:
SMILES	CDC25B CDK2 inh	TAR Tat displ
CCCCN(CC)C(=O)C1CCCN(c2ncnc3c2nc2n3CCCCC2)C1 (stereo unspecified)	.	0.42
CC(C)(C)NC(=S)N/N=C/c1ccco1	-1.29	.
Cc1c(C)c(C)c(C(=O)/C=N/N)c(C)c1C	-1.09	.
Cc1cn2c(=O)cc(CSc3ccc(F)cc3)nc2s1	.	0.57
CCCOCCOC(=O)C1=C(C)NC2=C(C(=O)CC(C)(C)C2)C1c1ccc(F)c(F)c1 (stereo unspecified)	.	1.66
O=C(/C=C/c1ccc(CN(CCO)CCc2c[nH]c3ccccc23)cc1)NO	.	0.62
OCCCc1nc2n(n1)C(c1ccc(Cl)cc1)C=C(c1ccc(F)cc1)N2 (stereo unspecified)	-1.09	.
CCCCOc1ccc(S(=O)(=O)Nc2ccc(-c3ccc(S(C)(=O)=O)nn3)cc2)cc1	.	-0.09
CC1(C)CC(=O)C2=C(C1)Nc1[nH]c(=O)[nH]c(=O)c1C2c1ccc(O)cc1 (stereo unspecified)	-1.11	1.53
Fc1ccccc1C(c1nnc(-c2ccccc2)o1)N1CCN(c2ccccc2)CC1 (stereo unspecified)	-0.96	0.9
CSc1cccc(Nc2c(-c3ccccc3)c(=O)c2=O)c1	.	1.97
O=C(COc1ccc2ccccc2c1)Nc1ccc(S(=O)(=O)N2CCc3ccccc32)cc1	-4.56	.
OCCCN1CNC(=S)NC1	0.35	.
Cn1c(=O)c2cn3c(c2n(C)c1=O)C(c1ccc(F)cc1)Nc1ccccc1-3 (stereo unspecified)	-2.95	2.55
Cc1ccc(N(C)S(=O)(=O)c2ccc(CN3C(=O)c4cccnc4C3=O)s2)cc1	.	0.33
Brc1ccc(-c2[nH]c(-c3cccnc3)nc2-c2ccccc2)cc1	-0.12	1.55
CS(=O)(=NC(=O)Nc1ccccc1)c1ccsc1 (stereo unspecified)	-0.95	.
CCOC(=O)c1cc(-c2ccc(S(=O)(=O)N(CC)c3ccccc3)s2)on1	.	-0.55
Cc1cc(NC(=O)CSc2ccc3nnc(-c4ccc(F)cc4)n3n2)no1	-1.94	.
O=c1nc2c(-c3cccc(F)c3)n[nH]n2c2cc(Cl)ccc12	-1.1	0.64
NC(=O)CSc1nccn(-c2ccc(Cl)cc2)c1=O	.	0.77
CCCCN(C)CCNC(=O)Cn1c(=O)sc2ccccc21	-1.74	1.54
Cc1ccc(C2=NS(=O)(=O)N(C)C(C(=O)N3CCC(C)C4CCCCC43)=C2)cc1 (stereo unspecified)	-1.33	2.06
CCN1CCCC1CNC(=O)c1cc(=O)nc2sc(N3CCC(C)CC3)nn12 (stereo unspecified)	.	0.07
Clc1ccc(/C=C/c2nn3c(-c4cccnc4)nnc3s2)cc1	2.48	-1.55

The list continues.
SMILES	CDC25B CDK2 inh	TAR Tat displ
Cc1ccc2nc(-c3ccc(N)cc3)oc2c1	-0.85	2.28
COc1cccc(-c2nc(-c3ccccc3)no2)c1	0.62	-0.51
CC(=O)N1c2ccc(S(=O)(=O)N3CCCC3)cc2CC1C(=O)NC1CCCC1 (stereo unspecified)	.	1.28
CC(=O)N1c2ccc(S(=O)(=O)N3CCCCC3)cc2CC1C(=O)NCc1ccc(C)o1 (stereo unspecified)	.	1.27
CCCSCCCN1C(=O)c2cc3occc3n2CC1(C)C(=O)NC1CCCC(C)C1C (stereo unspecified)	.	3.35
CC1CCCCN1C(=O)C1=CC(c2ccc3c(c2)OCO3)=NS(=O)(=O)N1C (stereo unspecified)	-1.36	1.39
CCc1nn2cnc3sc4c(c3c2nc1=O)CC(C)(C)OC4	-0.75	0.51
CSc1cccc(NC(=O)CC(C)S(=O)(=O)c2ccc3c(c2)NC(=O)CO3)c1 (stereo unspecified)	.	-0.58
CN1C(=O)CSc2ccc(NC(=O)Nc3ccc(Br)cn3)cc21	4.87	-1.89
CN1C(=O)/C(=C2/SC(=Nc3cccc(Cl)c3Cl)NC2=O)c2ccccc21	-2.45	.
CCOC(=O)C(C)NC(=O)c1cc2c(s1)-c1ccccc1OC2 (stereo unspecified)	-0.94	2.02
COCC(C)NC(=O)C1CC(c2cc(OC)ccc2OC)=NO1 (stereo unspecified)	-1	-0.78
COc1ccc(-c2ccc(NS(=O)(=O)c3ccccc3Cl)cc2)nn1	.	1.04
Cc1cccc(S(=O)(=O)Nc2cc(N3CCCS3(=O)=O)ccc2C)c1	.	-0.67
CCc1nn(CC(=O)NCCCN2CCN(C)CC2)c(=O)c2cc3occc3n12	-0.19	1.4
COc1nnc(-c2ccc(N3CCCCC3)c(N)c2)c2ccccc12	0.47	-0.14
O=C1CNC(=S)N1Cc1ccccn1	-2.28	.
O=S(=O)(NCCC1=CCCCC1)c1ccc(-n2cccn2)cc1	.	0.1
O=C(CSc1ccccc1[N+](=O)[O-])NNC(=O)c1ccccc1I	-0.83	.
CC(=O)N[C@H](CCc1ccccc1)C(=O)O	-1.23	.
COc1cc(C2C(=O)N(C3CCCCC3)CC(=O)N2Cc2cccs2)ccc1OC(C)C (stereo unspecified)	-2.1	.
CCOC(=O)c1nn(-c2ccccc2)c2nc(Nc3ccccc3)c(C(C)=O)c(=O)n12	-2.21	.
CCOC(=O)c1ccc(NC(=O)c2oc(=O)c3ccccc3c2-c2ccc(C)cc2)cc1	0.37	.
CC(=O)N1c2ccccc2CC1C(=O)NCCCN(C)C1CCCCC1 (stereo unspecified)	.	1.9
Cc1c(C(=O)N2CCN(Cc3ccc4c(c3)OCO4)CC2)sc2nc3n(c(=O)c12)CCC3	.	1.09

(more compounds)
SMILES	CDC25B CDK2 inh	TAR Tat displ
CC(=O)N1N=C(c2ccc(N(C)C)cc2)OC1c1cc(C)nc2ccccc12 (stereo unspecified)	.	0.33
Cc1nc2c(c(C)c1CCC(=O)NC(C)C)c(=O)n(C)c(=O)n2C	-2.36	-0.15
COC(=O)c1ccccc1S(=O)(=O)N1CCc2[nH]c3ccc(F)cc3c2C1	-1.49	.
CCCOC(=O)C1=C(C)NC2=C(C(=O)C(C(=O)OC)C(C)C2)C1c1ccc(N(C)C)cc1 (stereo unspecified)	-1	1.33
COc1ccc(-c2noc(-c3cc(C4CC4)[nH]n3)n2)cc1	.	-1.06
CCOc1cc2oc(=O)cc(-c3ccccc3)c2cc1Cl	-1.5	.
CCOc1ccc(-c2nc(C#N)c(N3CC(C)OC(C)C3)o2)cc1 (stereo unspecified)	0.44	1.18
CCC(NS(=O)(=O)c1cc2c(cc1C)NC(=O)CO2)c1cccs1 (stereo unspecified)	.	2.42
CCCNc1nc(N2CCOCC2)nc2c1cnn2C	.	1.99
C/C(=N\N=C1\NC(=O)C(CC(=O)Nc2cccc(Cl)c2Cl)S1)C(C)(C)C (stereo unspecified)	-1.31	.
Cc1ccc(C)n1CCN1CCN(S(=O)(=O)c2ccc(-c3ccc(=O)[nH]n3)s2)CC1	.	0.56
COc1ccc(OC)c(NC(=O)C2CCN(S(=O)(=O)c3ccc4[nH]c(=O)oc4c3)CC2)c1	.	1.51
CC(=O)CCS(=O)(=O)c1ccc(C)cc1	-2.01	.
Cc1cc2nc(CSc3n[nH]c(N)n3)cc(=O)n2o1	.	0.69
O=C(NCCCc1ccccc1)c1c(O)nc2ccccn2c1=O	-1.19	0.35
CCCC(C)NC(=O)c1ccc2c(c1)S(=O)(=O)N=C(C)N2CC(C)C (stereo unspecified)	.	2.01
CCn1c2ccccc2c2cc(NS(=O)(=O)c3ccccc3[N+](=O)[O-])ccc21	2.44	.
Cc1ccsc1CCNS(=O)(=O)c1c(C(=O)N2CCCCC2)c(C)n(C)c1C	.	-1.5
Cc1ccc(-c2noc(-c3nnn(-c4cc(C)ccc4C)c3C)n2)cc1	.	1.27
CCN(CC)c1ncnc2c1ncn2C1OC(CO)C(O)C1O (stereo unspecified)	-0.95	.
CN1C(=O)COc2ccc(-c3ccnc4cc(-c5ccc(Cl)cc5)nn34)cc21	10.2	-5.11
CCC(CC)C(=O)N1CSC[C@@H]1C(=O)NCc1csc(C)n1	.	1.45
CN1CCN(CCNC(=O)CN2C(=O)c3cccnc3Oc3ccc(Cl)cc32)CC1	.	-0.16
N#CCC(=O)Nc1ccncc1	-1.57	.
Cc1noc(C(=O)Nc2ccc(F)cc2F)c1Cl	-2.03	-0.04

Among those listed so far, these contain an aryl thioether with sulfur outside any ring:
SMILES	CDC25B CDK2 inh	TAR Tat displ
Cc1ccc(-c2nc(SCC(=O)N3CCCC3)n3[nH]c(=O)cc3n2)cc1	.	0.66
O=C(CSc1nnc2c3c4c(sc3ncn12)CCCC4)Nc1cccc(Cl)c1	-0.56	-2
CCn1nc(SC)n2c(=O)c3c(nc12)-c1ccccc1CC3(C)C	-1.82	-0.96
O=C(CSc1ccc(-c2cccs2)nn1)Nc1cccc(F)c1	.	2.38
Cc1cn2c(=O)cc(CSc3ccc(F)cc3)nc2s1	.	0.57
CSc1cccc(Nc2c(-c3ccccc3)c(=O)c2=O)c1	.	1.97
Cc1cc(NC(=O)CSc2ccc3nnc(-c4ccc(F)cc4)n3n2)no1	-1.94	.
NC(=O)CSc1nccn(-c2ccc(Cl)cc2)c1=O	.	0.77
CSc1cccc(NC(=O)CC(C)S(=O)(=O)c2ccc3c(c2)NC(=O)CO3)c1 (stereo unspecified)	.	-0.58
O=C(CSc1ccccc1[N+](=O)[O-])NNC(=O)c1ccccc1I	-0.83	.
Cc1cc2nc(CSc3n[nH]c(N)n3)cc(=O)n2o1	.	0.69

Remaining list, next part:
SMILES	CDC25B CDK2 inh	TAR Tat displ
Cc1nc2scc(C)n2c(=O)c1S(=O)(=O)N1CCN(c2ccc(F)cc2)CC1	-0.82	1.21
CCCN1CCN(C(=O)Cn2ncn3cccc3c2=O)CC1	-2.1	1.59
Cn1cc(S(=O)(=O)N2CCCC2)cc1C(=O)NCc1ccc2c(c1)OCO2	.	0.98
Oc1ccccc1-c1nc(NC2CCCCC2)c2ccccc2n1	-0.45	0.67
COc1ccc(Cn2c(=O)c(C#N)cc3c(=O)n4cccc(C)c4nc32)cc1	-1.97	-0.82
CCS(=O)(=O)c1nc(S(=O)(=O)c2ccc(C)cc2)c(NC(C)C)s1	-0.95	0.83
COC(=O)Nc1cccc(NC(=O)OC)c1F	-2.28	.
COc1ccc(C2C(C(=O)c3cc4ccccc4o3)=C(O)C(=O)N2CCN(C)C)cc1 (stereo unspecified)	-0.37	-1.76
Cc1nc2c(c(C)nn2C(C)(C)C)c(C)c1CCC(=O)N1CCC(C(N)=O)CC1	1.91	1.22
CC(C)CCNC(=O)c1cnn2c3c(cnc12)CCCCC3	.	-0.57
C=CCn1c(C2CC(=O)N(c3cc(C)cc(C)c3)C2)nc2ccccc21 (stereo unspecified)	-0.88	0.86
O=c1c(C2NCCC3(O)CCCCC23)coc2ccc(Cl)cc12 (stereo unspecified)	.	-1.89
CCCCn1c2ccccc2c2nc3cc(OC)c(OC)cc3nc21	1.68	0.74
CCc1ccc(-c2nc3c(=O)n(C)c(=O)nc-3n(CC)n2)cc1	4.21	-0.05

Bioassay records (PubChem BioAssay)
